Source: PubChem BioAssay (Broad Institute)
Yeast UUG start: modulators of start codon recognition fidelity in yeast; S. cerevisiae UUG-firefly luciferase reporter, luminescence/redox ratio; activity score, % at 18.7 µM; 350,000 tested, 0.13% active;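 active = replicate mean at a twofold rise or more, about +100% in these data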;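 note: firefly luciferase made from a UUG start codon reports start codon fidelity; reporter light over untreated wells divided by growth signal over untreated wells; some hits fall short of that in this replicate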
Env fusion inh: blocks HIV Env-driven cell-cell fusion | HeLa-JRFL Env/CEM21 cell fusion, luciferase | inhibition, % at 12.3 µM | 360,000 tested, 1.1% active;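 active = mean replicate inhibition score of at least 50 and every replicate individually at or above 50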;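 note: 0% = plate neutral controls and 100% = maraviroc near 300 nM; one replicate is shown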
Active calls of the source: *; [ ] = dose if it differs, or a comment. Not all compounds are listed; the hit share may differ from the screen's.

Screens in order – Yeast UUG start	Env fusion inh
CCNC(=O)C[C@H]1CC[C@H]2[C@H](COc3ccc(NC(=O)c4ccccc4Cl)cc3C(=O)N2C)O1
 : 5	-21[16.7 µM]
C[C@@H]1CN([C@H](C)CO)C(=O)Cc2cc(NS(=O)(=O)c3ccccc3)ccc2O[C@@H]1CN(C)S(=O)(=O)c1cccs1
 : 23	3[16.7 µM]
C[C@@H]1CN([C@H](C)CO)C(=O)c2cc(C#CC3(O)CCCC3)cnc2O[C@H]1CN(C)C(=O)C1CCC1
 : -5	1[16.7 µM]
C[C@H]1CN([C@@H](C)CO)C(=O)Cc2cc(NC(=O)CCN3CCOCC3)ccc2O[C@H]1CN(C)Cc1ccc(C(=O)O)cc1
 : 4	-6[16.7 µM]
COc1cccc(S(=O)(=O)Nc2ccc3c(c2)[C@H]2C[C@@H](CC(=O)NCc4cccc(F)c4)O[C@@H](CO)[C@H]2O3)c1
 : 13	-16[16.7 µM]
O=C(C[C@@H]1C[C@@H]2c3cc(NC(=O)Nc4ccccc4F)ccc3O[C@@H]2[C@H](CO)O1)NCC(F)(F)F
 : -3	-20[16.7 µM]
CO[C@H]1CN(C)C(=O)c2cc(NS(=O)(=O)c3ccc(C)cc3)ccc2OC[C@@H](C)N(Cc2nccs2)C[C@@H]1C
 : -4	19[16.7 µM]
O=C(C[C@@H]1CC[C@@H](NC(=O)Nc2ccc(F)cc2)[C@H](CO)O1)NCCN1CCCC1
 : -12	-5[16.7 µM]
N#C[C@@H]1[C@H](c2ccccc2)[C@H](CO)N1C(=O)Cc1ccccn1
 : -6	-2[16.7 µM]
CN1C(=O)c2cc(NC(=O)Cc3cccs3)ccc2OC[C@@H]2O[C@H](CC(=O)O)CC[C@H]21
 : -6	-10[16.7 µM]
C[C@@H]1CCCCO[C@@H](CN(C)S(=O)(=O)c2cn(C)cn2)[C@@H](C)CN([C@H](C)CO)C(=O)c2cc(NS(=O)(=O)c3ccccc3)ccc2O1
 : -3	-86[16.7 µM]
COCC#Cc1cnc2c(c1)C(=O)N([C@H](C)CO)C[C@@H](C)[C@@H](CN(C)C(=O)Nc1cccc(F)c1)O2
 : 19	-4[16.7 µM]
CCCC#Cc1cnc2c(c1)C(=O)N([C@H](C)CO)C[C@@H](C)[C@@H](CN(C)C(=O)Nc1ccccc1OC)O2
 : 9	-35[16.7 µM]
O=C(CCN1CCCCC1)NCC[C@H]1CC[C@@H](NC(=O)C2CCCC2)[C@H](CO)O1
 : 5	2[16.7 µM]
COCC(=O)N(C)C[C@H]1Oc2cc(C#CCN(C)C)ccc2S(=O)(=O)N([C@@H](C)CO)C[C@H]1C
 : 4	7[16.7 µM]
C[C@H](CO)N1C[C@H](C)[C@H](CN(C)Cc2ccccc2)Oc2ncc(-c3ccc(F)cc3)cc2C1=O
 : 3	9[16.7 µM]
CC(C)NC(=O)N(C)C[C@@H]1Oc2ncc(C#Cc3ccncc3)cc2C(=O)N([C@@H](C)CO)C[C@@H]1C
 : -12	-8[16.7 µM]
C[C@@H]1CN([C@@H](C)CO)C(=O)c2cc(C#Cc3ccc(F)cc3)cnc2O[C@H]1CN(C)S(C)(=O)=O
 : -13	-2[16.7 µM]
O=C(N[C@@H]1CC[C@@H](CCn2cc(-c3ccccn3)nn2)O[C@H]1CO)c1ccncc1
 : -17	11[16.7 µM]
O=C(C[C@H]1C=C[C@@H](NC(=O)Nc2ccccc2F)[C@H](CO)O1)NCc1ccc(-c2ccccc2)cc1
 : 6	57*[16.7 µM]
O=C(C[C@@H]1CC[C@H](NC(=O)c2ccncc2)[C@H](CO)O1)NCCc1ccncc1
 : 0	-10[16.7 µM]
C[C@@H]1CCCCO[C@@H](CN(C)C(=O)Nc2ccc(F)cc2)[C@@H](C)CN([C@H](C)CO)C(=O)c2cc(NS(=O)(=O)c3cn(C)cn3)ccc2O1
 : -4	-5[16.7 µM]
COc1cccc(S(=O)(=O)Nc2ccc3c(c2)[C@@H]2C[C@H](CC(=O)N[C@@H](C)c4ccccc4)O[C@@H](CO)[C@@H]2O3)c1
 : 8	-12[16.7 µM]
Cn1cnc(S(=O)(=O)N[C@H]2CC[C@H](CC(=O)N3CCN(c4ccccc4)CC3)O[C@@H]2CO)c1
 : -4	5[16.7 µM]
C[C@@H]1CCCCO[C@@H](CN(C)Cc2ccc(C(=O)Nc3ccccc3N)cc2)[C@@H](C)CN([C@H](C)CO)C(=O)c2cc(NC(=O)Nc3ccccc3)ccc2O1
 : 5	1[16.7 µM]
CCCN(C)C[C@H]1Oc2cc(C#Cc3ccc(OC)cc3)ccc2S(=O)(=O)N([C@@H](C)CO)C[C@H]1C
 : -2	-24[16.7 µM]
CCCNC(=O)N[C@@H]1C=C[C@H](CC(=O)NC2CCC2)O[C@H]1CO
 : -9	-5[16.7 µM]
C[C@H](O)C#Cc1ccc2c(c1)O[C@H](CN(C)C(=O)Cc1ccccn1)[C@@H](C)CN([C@@H](C)CO)S2(=O)=O
 : 6	-10[16.7 µM]
COc1cccc(S(=O)(=O)N(C)C[C@H]2Oc3ncc(-c4cccc(C(=O)N(C)C)c4)cc3C(=O)N([C@@H](C)CO)C[C@@H]2C)c1
 : 2	6[16.7 µM]
C[C@H]1CN([C@@H](C)CO)C(=O)c2cc(C#Cc3ccc(F)cc3)cnc2O[C@H]1CN(C)C(=O)c1ccccc1F
 : 4	7[16.7 µM]
C[C@@H]1CCCCO[C@H](CN(C)Cc2ccc3c(c2)OCO3)[C@@H](C)CN([C@H](C)CO)C(=O)c2cc(N(C)C)ccc2O1
 : -5	-11[16.7 µM]
C/C=C/c1ccc2c(c1)O[C@H](CN(C)C(C)=O)[C@@H](C)CN([C@H](C)CO)S2(=O)=O
 : 7	-12[16.7 µM]
COc1ccc(C(=O)Nc2ccc3c(c2)OC[C@@H](C)N(C)C[C@H](C)[C@@H](OC)CN(C)C3=O)cc1
 : 5	2[16.7 µM]
Cc1noc(C)c1NC(=O)Nc1cccc2c1O[C@H](CN(C)C(=O)NC(C)C)[C@H](C)CN([C@@H](C)CO)C2=O
 : -1	6[16.7 µM]
Cc1noc(C)c1NC(=O)Nc1ccc2c(c1)C(=O)N([C@H](C)CO)C[C@H](C)[C@H](CN(C)C(=O)Nc1ccc(F)cc1)O2
 : 8	6[16.7 µM]
C[C@@H]1CCCCO[C@@H](CN(C)CC2CCCCC2)[C@@H](C)CN([C@H](C)CO)C(=O)c2cc(NC(=O)C3CCCCC3)ccc2O1
 : 5	-14[16.7 µM]
O=C(C[C@@H]1C=C[C@H](NS(=O)(=O)c2ccccc2)[C@@H](CO)O1)NCc1ccccc1F
 : 22	-3[16.7 µM]
O=C(Cc1ccccc1)N[C@H]1CC[C@@H](CC(=O)N2CCCCC2)O[C@@H]1CO
 : -12	-2[16.7 µM]
C[C@@H]1CN([C@@H](C)CO)C(=O)c2cc(NC(=O)CCC(F)(F)F)ccc2O[C@@H](C)CCCCO[C@@H]1CN(C)C(=O)Nc1cccc2ccccc12
 : 12	51[16.7 µM]
CCCC#Cc1cnc2c(c1)C(=O)N([C@H](C)CO)C[C@@H](C)[C@H](CN(C)C(=O)Cc1ccncc1)O2
 : -9	-11[16.7 µM]
CCC(=O)N[C@H]1C=C[C@H](CC(=O)NCc2ccccc2OC)O[C@H]1CO
 : -13	-9[16.7 µM]
C[C@@H]1CN([C@@H](C)CO)C(=O)c2cc(C#Cc3ccncc3)cnc2O[C@@H]1CN(C)C(=O)CN(C)C
 : -10	-18[16.7 µM]
C[C@H](CO)N1C[C@H](C)[C@H](CN(C)C(=O)CN(C)C)Oc2ncc(C#CC(C)(C)O)cc2C1=O
 : 45	-18[16.7 µM]
N#C[C@@H]1[C@@H](c2ccc(-c3cccc(F)c3)cc2)[C@@H](CO)N1c1nc(-c2ccccc2)cs1
 : -14	9[16.7 µM]
C/C=C/c1ccc([C@@H]2[C@@H](C#N)N(c3nc(-c4ccccc4)cs3)[C@@H]2CO)cc1
 : -14	-27[16.7 µM]
C[C@@H]1CN([C@H](C)CO)C(=O)CCCn2cc(nn2)CO[C@H]1CN(C)Cc1ccc2c(c1)OCO2
 : 4	-19[16.7 µM]
Cc1noc(C)c1S(=O)(=O)N(C)C[C@H]1OCCCC[C@H](C)Oc2ccc(NS(=O)(=O)c3cccs3)cc2C(=O)N([C@H](C)CO)C[C@@H]1C
 : 3	-11[16.7 µM]
C[C@H]1CCCCO[C@H](CN(C)Cc2ccncc2)[C@@H](C)CN([C@@H](C)CO)C(=O)c2cc(NC(=O)CCCN(C)C)ccc2O1
 : 5	-19[16.7 µM]
Cc1noc(C)c1S(=O)(=O)Nc1ccc2c(c1)C(=O)N([C@@H](C)CO)C[C@H](C)[C@@H](CN(C)C)OCCCC[C@@H](C)O2
 : 3	4[16.7 µM]
O=C(C[C@H]1CC[C@@H](NC(=O)Nc2cc(F)ccc2F)[C@@H](CO)O1)NCc1ccccn1
 : -15	4[16.7 µM]
C[C@H]1CN([C@@H](C)CO)S(=O)(=O)c2ccc(C3=CCCC3)cc2O[C@H]1CN(C)C
 : -5	11[16.7 µM]
C[C@H](CO)N1C[C@H](C)[C@@H](CN(C)S(C)(=O)=O)OCCCC[C@H](C)Oc2ccc(NS(=O)(=O)c3ccc(F)cc3)cc2C1=O
 : 10	-5[16.7 µM]
O=C(Nc1ccc2c(c1)OCO2)N[C@H]1CC[C@@H](CCNC(=O)C2CCCC2)O[C@@H]1CO
 : -5	38[16.7 µM]
COCC#Cc1cnc2c(c1)C(=O)N([C@@H](C)CO)C[C@H](C)[C@H](CN(C)Cc1ccc3c(c1)OCO3)O2
 : 5	2[16.7 µM]
C[C@@H]1CCCCO[C@H](CN(C)S(=O)(=O)c2cn(C)cn2)[C@@H](C)CN([C@@H](C)CO)C(=O)c2cc(NS(=O)(=O)c3ccccc3)ccc2O1
 : 13	3[16.7 µM]
C[C@@H]1CN([C@@H](C)CO)C(=O)Cc2cc(NC(=O)CCC(F)(F)F)ccc2O[C@@H]1CN(C)S(=O)(=O)c1cn(C)cn1
 : -2	11[16.7 µM]
C[C@H](CO)N1C[C@H](C)[C@@H](CN(C)C(=O)C2CCCCC2)Oc2ncc(-c3cccc(F)c3)cc2C1=O
 : 17	42[16.7 µM]
CCC(=O)N(C)C[C@H]1Oc2cc(-c3ccc(C#N)cc3)ccc2S(=O)(=O)N([C@H](C)CO)C[C@H]1C
 : 13	-7[16.7 µM]
NCC[C@H]1CC[C@H](NC(=O)Cc2ccncc2)[C@H](CO)O1
 : 5	5[16.7 µM]
C[C@H](CO)N1C[C@H](C)[C@@H](CN(C)S(=O)(=O)c2ccc(F)cc2)OCCCC[C@H](C)Oc2ccc(NS(=O)(=O)c3ccc(Cl)cc3)cc2C1=O
 : 10	-5[16.7 µM]

Overlap with the part before: 6 compounds, then new ones.
> C[C@@H]1CCCCO[C@H](CN(C)S(=O)(=O)c2cn(C)cn2)[C@@H](C)CN([C@@H](C)CO)C(=O)c2cc(NS(=O)(=O)c3ccccc3)ccc2O1
  Yeast UUG start: 13 | Env fusion inh: 3[16.7 µM]

> C[C@@H]1CN([C@@H](C)CO)C(=O)Cc2cc(NC(=O)CCC(F)(F)F)ccc2O[C@@H]1CN(C)S(=O)(=O)c1cn(C)cn1
  Yeast UUG start: -2 | Env fusion inh: 11[16.7 µM]

> C[C@H](CO)N1C[C@H](C)[C@@H](CN(C)C(=O)C2CCCCC2)Oc2ncc(-c3cccc(F)c3)cc2C1=O
  Yeast UUG start: 17 | Env fusion inh: 42[16.7 µM]

> CCC(=O)N(C)C[C@H]1Oc2cc(-c3ccc(C#N)cc3)ccc2S(=O)(=O)N([C@H](C)CO)C[C@H]1C
  Yeast UUG start: 13 | Env fusion inh: -7[16.7 µM]

> NCC[C@H]1CC[C@H](NC(=O)Cc2ccncc2)[C@H](CO)O1
  Yeast UUG start: 5 | Env fusion inh: 5[16.7 µM]

> C[C@H](CO)N1C[C@H](C)[C@@H](CN(C)S(=O)(=O)c2ccc(F)cc2)OCCCC[C@H](C)Oc2ccc(NS(=O)(=O)c3ccc(Cl)cc3)cc2C1=O
  Yeast UUG start: 10 | Env fusion inh: -5[16.7 µM]

> C[C@@H]1CCCCO[C@H](CN(C)C(=O)c2ccncc2)[C@@H](C)CN([C@H](C)CO)C(=O)c2cc(NS(C)(=O)=O)ccc2O1
  Yeast UUG start: -11 | Env fusion inh: -2[16.7 µM]

> O=C(C[C@@H]1C=C[C@H](NC(=O)Cc2cccnc2)[C@@H](CO)O1)NCc1ccc2c(c1)OCO2
  Yeast UUG start: -1 | Env fusion inh: 13[16.7 µM]

> COc1ccc(S(=O)(=O)N(C)C[C@@H]2OCCCC[C@@H](C)Oc3ccc(NC(=O)C4CCCCC4)cc3C(=O)N([C@H](C)CO)C[C@@H]2C)cc1
  Yeast UUG start: -3 | Env fusion inh: -9[16.7 µM]

> C[C@@H]1CN([C@H](C)CO)S(=O)(=O)c2ccc(C#C[C@@H](C)O)cc2O[C@H]1CN(C)Cc1cccnc1
  Yeast UUG start: -6 | Env fusion inh: 1[16.7 µM]

> C[C@H]1CN([C@@H](C)CO)C(=O)c2cc(-c3cccc(C#N)c3)cnc2O[C@@H]1CN(C)C(=O)C1CCC1
  Yeast UUG start: -6 | Env fusion inh: -17[16.7 µM]

> COc1ccc([Si](C)(C)[C@H]2[C@H](CCO)O[C@@]3(C(=O)N(Cc4ccccc4)c4ccc(N5CCC5=O)cc43)[C@@H]2C)cc1
  Yeast UUG start: -3 | Env fusion inh: 31[16.7 µM]

> C[C@H](CO)N1C[C@H](C)[C@H](CN(C)Cc2ccccn2)Oc2cc(Br)ccc2S1(=O)=O
  Yeast UUG start: -11 | Env fusion inh: 15[16.7 µM]

> Cc1ccccc1S(=O)(=O)N[C@H]1CC[C@H](CCn2cc(Cc3ccccc3)nn2)O[C@H]1CO
  Yeast UUG start: 20 | Env fusion inh: 7[16.7 µM]

Pulled one by one from above:
> COc1ccc(S(=O)(=O)N(C)C[C@@H]2OCCCC[C@@H](C)Oc3ccc(NC(=O)C4CCCCC4)cc3C(=O)N([C@H](C)CO)C[C@@H]2C)cc1
  Yeast UUG start: -3 | Env fusion inh: -9[16.7 µM]

> O=C(C[C@@H]1CC[C@H](NC(=O)c2ccncc2)[C@H](CO)O1)NCCc1ccncc1
  Yeast UUG start: 0 | Env fusion inh: -10[16.7 µM]
